Compound activity as filed in PubChem.
Lassa entry inh: Lassa virus entry inhibition; Lassa virus pseudotype entry inhibition, cell reporter; control for the full effect not named in the record; Potency, µM (top dose mostly 37.9 µM), for the others: top-dose activity change, negative = inhibition, hits mostly inhibitors; 300,000 compounds, 1.2% hits; AID 540256; active means well fitted inhibition curve with a large enough effect; inconclusive means small, poorly fitted or top-dose-only effect, or effect the other way; inactive means flat fitted curve, though single readings scatter; tested in HEK293 cells; also: % is scaled to controls: 0 for no effect and ±100 for the full control effect; nearly all actives have a fitted effect of over 50% in size; luciferase read-out
SARS PLP yeast: SARS-CoV PLP inhibition in yeast | S. cerevisiae expressing SARS-CoV PLpro, growth rescue; control for the full effect not named in the record | 330,000 compounds, 0.19% hits | Potency, µM (titrated, usually from 32.9 µM), for inactives: top-dose activity, positive = growth rescue; active means well fitted rising curve with a large enough effect; inconclusive means small, poorly fitted or top-dose-only effect; inactive means no such curve, though single readings can be large or run the other way; also: 0% is about no effect; nearly all actives have a fitted effect of over 55% in size; growth read by luminescence after 48 h
Marburg entry inh: blocks Marburg virus binding to or entry into cells | 300,000 compounds, 1.8% hits | AID 540276 | Marburg virus pseudotyped entry inhibition, cell reporter; control for the full effect not named in the record; about a third of the inactives were read at about 46 µM | Potency, µM (doses to about 37.8 µM), for the others: at the top dose activity change, negative = inhibition, most hits filed as inhibitors; active = well fitted inhibition curve with a large enough effect; inconclusive = small, poorly fitted or top-dose-only effect, or effect the other way; inactive = flat fitted curve, though single readings scatter; tested in HEK293 cells; about a fifth of its hits are not listed in these tables; also: % is scaled to controls: 0 for no effect and ±100 for the full control effect; luciferase read-out
RE007 growth inh: less growth of the S. pombe RE007 Vpr strain | S. pombe RE007 Vpr strain, BacTiter-Glo ATP luminescence, 24 h; control for the full effect not named in the record | Potency, µM (highest dose often 92.2 µM), inactives show at the highest dose activity change, negative = less growth | 360,000 compounds, 0.21% hits | AID 651644; active = well fitted falling curve with a large enough effect; inconclusive = small, poorly fitted or top-dose-only effect; inactive = no such curve, though single readings can be large or run the other way;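 also: % is scaled to controls: 0 for no effect and ±100 for the full control effect; nearly all actives have a fitted effect of over 50% in size; the assay follows cell death caused by Vpr and the record does not say whether a fall means rescue or toxicity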
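Fission yeast strain RE007, carrying one chromosomally integrated HIV-1 vpr copy, was seeded at OD 0.01 in PMG+AL medium with 23 nL pinned compound. After 24 h at 30 °C and 99% humidity, viability was read by BacTiter-Glo luminescence.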
NS1 inh: blocks influenza NS1 protein function; 270,000 compounds, 0.4% hits; AID 2326; Potency, µM (titrated, usually from 46.1 µM), inactives show at the highest dose activity, positive = more growth; S. cerevisiae slowed by influenza A NS1, growth recovery by OD600; active means well fitted rising curve with a large enough effect; inconclusive means small, poorly fitted or top-dose-only effect; inactive means no such curve, though single readings can be large or run the other way; also: nearly all actives have a fitted effect of over 50% in size
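OD600 was taken as the measure of yeast growth restored by compound in an NS1-expressing S. cerevisiae strain. Cells had been washed out of glucose medium and diluted 1:100 into galactose -URA medium, pH 6.0.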
StopGo reporter: lowers the luciferase signal of an FMDV 2A StopGo reporter. human cells with a luciferase reporter of 2A StopGo recoding; control for the full effect not named in the record. Potency, µM (highest dose often 57.9 µM), without a hit: top-dose signal change, negative = less light. 410,000 compounds, 1.2% hits; active = well fitted falling curve with a large enough effect; inconclusive = small, poorly fitted or top-dose-only effect; inactive = no such curve, though single readings can be large or run the other way; tested in HEK293T cells; also: % is scaled to controls: 0 for no effect and ±100 for the full control effect; nearly all actives have a fitted effect of over 45% in size; luciferase light after 4 h
Cruzain inh noDet: blocks cruzain activity in detergent-free assay; purified cruzain, Z-FR-AMC fluorescence, no detergent; Potency, µM, for the others: max response, negative = inhibition, most hits filed as inhibitors; 200,000 compounds, 2.3% hits;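 also: plate controls were enzyme without inhibitor for no effect and buffer without enzyme for full effect; nearly all actives have a fitted effect of over 40% in size; top concentration of the series not given in the record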
Target sequence (P25779 123-467 limits assumed): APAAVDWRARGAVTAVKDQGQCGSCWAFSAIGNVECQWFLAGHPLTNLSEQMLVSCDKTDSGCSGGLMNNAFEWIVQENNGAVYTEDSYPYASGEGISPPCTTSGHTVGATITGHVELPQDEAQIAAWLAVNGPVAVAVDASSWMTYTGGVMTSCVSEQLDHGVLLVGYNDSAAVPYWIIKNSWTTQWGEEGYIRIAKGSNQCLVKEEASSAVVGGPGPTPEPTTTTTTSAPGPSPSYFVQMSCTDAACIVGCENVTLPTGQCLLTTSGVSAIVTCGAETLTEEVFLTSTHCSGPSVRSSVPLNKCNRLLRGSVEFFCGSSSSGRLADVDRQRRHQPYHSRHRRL
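Detergent-free condition (0.00005% Triton X-100) in acetate buffer pH 5.5 with DTT. 1.5 nM enzyme and compound were pre-mixed 15 min, then 2 uM Z-FR-AMC substrate added; reaction progress from fluorescence change between first and third reads (60 s).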
Cruzain inh Det: blocks cruzain activity in presence of Triton detergent | purified cruzain, Z-FR-AMC fluorescence, 0.01% Triton | Potency, µM, without a hit: max response, negative = inhibition, actives largely listed as inhibitors | 200,000 compounds, 0.43% hits | AID 1478;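 also: plate controls were neutral wells for no effect and buffer without enzyme for full effect; nearly all actives have a fitted effect of over 40% in size; top concentration of the series not given in the record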
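Cysteine protease activity tested under reducing, mildly acidic conditions (100 mM sodium acetate pH 5.5, 5 mM DTT) plus 0.01% Triton X-100. Cruzain 1.5 nM; substrate Z-FR-AMC 2 uM; 15 min compound preincubation at room temperature.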
* = called active by the depositor; u = inconclusive; x = not tested or not shown; & = joins results of further samples; [ ] = remark or other dose. Unless noted, calls follow the shape of the dose curve; as a rule, active = well fitted curve in the direction sought with a large enough effect; inconclusive = small, poorly fitted or top-dose-only effect, or another doubt; inactive = no such curve, though single readings can be large; an effect the other way counts as inactive or inconclusive. Potency is read from the fitted curve at half-maximal effect.

SMILES	Lassa entry inh	SARS PLP yeast	Marburg entry inh	RE007 growth inh	NS1 inh	StopGo reporter	Cruzain inh noDet	Cruzain inh Det
Cc1ccc(OCC(=O)NCc2ccccn2)c(Br)c1	u	-3.6%	12.6%	-20.0%	-15.8%	57.9%[activator]	5.1%	-4.0%
NC(=O)CSc1nc2ccc(NC(=O)COc3ccccc3)cc2s1	-2.1%[46.1 µM]	x	17.9%[46.1 µM]	x	x	32.3%[activator]	-9.3%	-5.2%
Cc1cc(NC(=O)C2C3C(=O)N(Cc4ccc(Cl)cc4)C(C(=O)NCc4ccccc4)C34C=CC2(C)O4)no1 (stereo unspecified)	13.0%	9.1%	-3.9%	13.2%	-10.4%	-17.3%	16.3%	-1.5%
COc1cc(CNCc2cccc3ccccc23)cc(OC)c1	x	u	x	-0.8%	-15.6%	-19.3%	x	x
Cc1ccccc1-c1nc(CS(=O)CC(=O)NCCN2CCN(Cc3ccccc3)CC2)c(C)o1 (stereo unspecified)	4.0%	-2.2%	u	7.6%	-6.1%	-10.3%	-4.7%	0.2%
O=[N+]([O-])c1ccccc1S(=O)(=O)Nc1ccc2c(c1)OCCO2	x	-6.2%	x	-7.7%	0.7%	25.3%	x	x
CCN(CC)CCCNC(=O)C1CCC(=O)N(c2ccc(OC)cc2)C1c1ccc(F)cc1 (stereo unspecified)	4.8%	-12.5%	-1.1%&-1.1%[46.1 µM]	12.5%	-7.4%	25.4%	-7.6%	-1.6%
O=C(O)CC1(c2ccccc2)C(=O)c2ccccc2C1=O	-0.1%	8.9%	9.9%	21.9%	0.2%	5.3%	-9.5%	2.8%
CC(=O)c1c(C)[nH]c(C(=O)NC2CCCCC2)c1C	u	-0.7%	16.3%	3.5%	-4.8%	44.3%[activator]	3.5%	0.0%
CCc1ccc(Nc2nc3c(S(=O)(=O)c4ccc(C)cc4)nnn3c3ccsc23)cc1	u	x	x	x	x	-16.9%	-11.6%	0.3%
COc1ccc(OC)c(S(=O)(=O)Nc2cc(C)on2)c1	3.2%[46.1 µM]	-3.9%	-26.0%[46.1 µM]	2.6%	-2.7%	11.5%	x	x
CCCCN(CC)CCNC(=O)Cn1c(=O)c2cccn2c2cccnc21	-2.3%[46.1 µM]	x	x	x	x	-11.8%	-12.3%	-2.7%
O=C(/C=C/c1ccccc1Cl)OCC(=O)N1CCCC1	-3.0%	0.2%	6.6%	2.5%	x	55.4%[activator]	x	x
COc1cccc(NC(=O)COC(=O)c2nc3nccc(C)n3n2)c1	5.1%	9.9%	-3.0%	-4.2%	4.6%	2.0%	1.0%	2.8%
Cn1c(SCC(=O)NC2CC2)nnc1-c1ccccc1Cl	-4.1%	-3.4%	-2.7%[46.1 µM]	27.4%	7.7%	-7.7%	x	x
CCn1c(CSc2nc(C)cc(C)n2)nnc1SCC(=O)Nc1cccc2ccccc12	10.1%	1.5%	u	-6.0%	9.4%	3.7%	-0.5%	2.8%
COc1ccc(CNC(=O)c2cc3cccc4c3n2CC(C)S4)c(OC)c1 (stereo unspecified)	-19.0%[46.1 µM]	x	x	x	x	-20.5%	u	3.1%
Cc1cc(C(=O)NCC(=O)OCC(=O)N(C2CCCCC2)C2CCCCC2)ccc1[N+](=O)[O-]	6.7%	-8.6%	2.7%	2.7%	10.1%	0.0%	-2.4%	-20.5%
Cc1ccc([N+](=O)[O-])cc1S(=O)(=O)N1CCC(C)CC1	-1.5%	-2.4%	u	16.5%	0.2%	-22.6%	x	x
Cc1ccccc1NC(=O)NCCN1C(=O)C2C3C=CC(C3)C2C1=O (stereo unspecified)	x	0.6%	x	-11.1%	u	13.0%	-4.4%	-3.3%
NC(N)=NOCCC(N)C(=O)O (stereo unspecified)	1.6%	x	0.0%&0.0%&0.0%&8.1%&0.0%&0.0%	x	-40.8%	-3.5%	2.9%&-6.6%	3.3%&-0.1%
COc1ccc(S(=O)(=O)NCCc2ccccn2)cc1	u	10.3%	5.6%[46.1 µM]	6.9%	x	40.2%[activator]	x	x
CC(CC(=O)O)CC(=O)N1CCN(S(=O)(=O)c2cccs2)CC1 (stereo unspecified)	u	-1.3%	20.1%	-15.1%	3.0%	-26.6%	x	x
Cc1ccc(C)c(S(=O)(=O)N2CCN(CC(=O)Nc3ccc([N+](=O)[O-])cc3)CC2)c1	-0.5%	12.8%	-7.7%	-4.4%	2.6%	-24.9%	-3.2%	-5.2%
COc1ccc(OC)c(S(=O)(=O)N2CCC(C(=O)NCc3cccnc3)CC2)c1	3.2%	-0.1%	20.5%[46.1 µM]	8.2%	1.2%	1.5%	x	x
Continuation.
SMILES	Lassa entry inh	SARS PLP yeast	Marburg entry inh	RE007 growth inh	NS1 inh	StopGo reporter	Cruzain inh noDet	Cruzain inh Det
COc1ccc(Nc2cc(C)c3ccc(O)cc3n2)cc1	x	1.2%	x	-1.1%	-6.9%	4.4%	x	x
COC(=O)CCC/C=C1/SCC(NC(=O)c2ccccc2)C1=O (stereo unspecified)	1.4%	-8.1%	u	u	u	-27.4%	24.0%	-20.1%
Cc1ccc(C2SCC(=O)N2Cc2cn3ccsc3n2)o1 (stereo unspecified)	-5.6%	3.9%	-12.1%[46.1 µM]	-2.3%	5.2%	-19.4%	-27.9%	-22.2%
CC1CCCCC1NC(=O)CSc1nnc(COc2ccc(Cl)cc2)o1 (stereo unspecified)	0.9%[46.1 µM]	3.8%	-14.9%[46.1 µM]	3.2%	6.8%	1.3%	x	x
Cc1ccc(S(=O)(=O)NCCN2CCOCC2)cc1C	-19.3%	2.8%	8.3%	4.7%	-5.9%	6.3%	-6.4%	3.9%
C=CCn1c(SCC(=O)c2[nH]c(C)c(C(=O)OCC)c2C)nc2scc(-c3ccc(OC)cc3)c2c1=O	8.1%	-0.3%	u	3.3%	-3.8%	-22.3%	-2.1%	-2.4%
CCOC(=O)c1cc(=O)n(Cc2ccccc2C)c2ccccc12	u	-1.1%	u	13.4%	-71.8%	-18.7%	1.3%	-10.7%
COC(=O)N/N=C/c1cn(Cc2ccc(F)cc2)c2ccccc12	x	0.6%	x	16.1%	4.9%	-9.9%	x	x
CCOC(=O)c1cccc(NC(=O)CCn2nc(C)c3c(C)n(-c4ccccc4)nc3c2=O)c1	-3.4%[46.1 µM]	x	x	x	x	-22.6%	-5.0%	-2.1%
COC(=O)C1=C(C)C(c2cccs2)NC(=O)N1C (stereo unspecified)	8.4%	-12.2%	4.3%	18.8%	2.1%	3.4%	-3.4%	-1.4%
CCC(CC)COC(=O)C1=C(C)NC(=O)NC1c1cccc([N+](=O)[O-])c1 (stereo unspecified)	x	1.7%	x	5.1%	u	-22.2%	x	x
Cn1cc([N+](=O)[O-])c(C(=O)Nc2nccs2)n1	x	-0.9%	x	20.1%	-0.6%	-10.9%	x	x
COC(=O)c1ccccc1NC(=O)c1ccc2c(c1)CC(C)O2 (stereo unspecified)	u	-9.7%	-1.2%	2.1%	-30.7%	26.1%	x	x
CCCCOc1ccc(C(=O)OCC(=O)N2CCOCC2)cc1	-16.8%	0.1%	17.8%[46.1 µM]	1.0%	-14.3%	-19.1%	x	x
Cc1c(CC(=O)O)c(=O)oc2c(C)c(OCc3c(F)cccc3Cl)ccc12	x	2.1%	x	14.0%	10.9%	9.7%	x	x
CSc1ncc(Sc2ccccc2)c(C(=O)O)n1	-7.1%	x	u	8.4%	x	2.2%	x	x
COC(=O)CC(NC(=O)c1ccc(C)cc1)c1ccccc1 (stereo unspecified)	3.1%	-9.1%	6.7%	10.7%	-104.2%	x	3.9%	-1.0%
Cc1c(N2C(=O)c3ccc(Br)cc3C2=O)c(=O)n(-c2ccccc2)n1C	4.8%	-9.1%	12.7%	15.9%	-11.1%	-8.1%	-3.1%	-1.3%
O=C(c1ccc(Cl)cc1)c1ccc(Oc2cc(NN3CCCCC3)c([N+](=O)[O-])cc2[N+](=O)[O-])cc1	x	-6.8%	x	-9.1%	-41.2%	-5.4%	x	x
Cc1ccc(C)c(OCC(=O)O/N=C(\N)c2cccc([N+](=O)[O-])c2)c1	u	-0.2%	u	-16.1%	-1.7%	2.3%	x	x
Cc1ccc(S(=O)(=O)N(Cc2cc3ccccc3[nH]c2=O)CC2CCCO2)cc1 (stereo unspecified)	u	1.9%	-2.5%	6.1%	2.3%	8.8%	x	x
CN(C)c1nc(Oc2ccc(=O)[nH]n2)nc(N2CCCCC2)n1	27.0%	x	-1.6%	-3.3%	-4.5%	-1.9%	11.9%	2.7%
Cc1ccc(Cl)cc1NC(=O)c1oc2ccc(S(=O)(=O)N(C)C3CCCCC3)cc2c1C	25.4%[46.1 µM]	x	x	x	x	-8.8%	-13.7%	0.9%
O=C(O)[C@H]1CCC(=O)N1Cc1ccco1	-1.5%	-1.0%	3.3%[46.1 µM]	0.5%	7.3%	9.8%	-25.0%	-0.1%
CCOC(=O)CC(NC(=O)Cc1ccc(F)cc1)c1ccccc1Cl (stereo unspecified)	13.6%	1.8%	-0.1%	-4.9%	-8.7%	3.1%	0.3%	-3.1%
(listing goes on)
SMILES	Lassa entry inh	SARS PLP yeast	Marburg entry inh	RE007 growth inh	NS1 inh	StopGo reporter	Cruzain inh noDet	Cruzain inh Det
COc1ccc2cc(C3CC(c4ccco4)=NN3S(C)(=O)=O)c(Cl)nc2c1 (stereo unspecified)	1.0%	0.2%	-7.6%[46.1 µM]	0.8%	0.5%	14.5%	x	x
O=C(CSc1ccccc1)Nc1ccc2c(c1)OCCO2	u	-2.5%	u	11.0%	-10.6%	6.6%	x	x
O=C(O)c1ccc2c(c1)CCCN2	16.2%	-1.0%	1.7%	-4.1%	3.7%	6.3%	x	x
CCOC(=O)C(C)NC(=O)CCc1nnc2ccc(N3CCCCC3)nn12 (stereo unspecified)	13.2%	1.6%	5.5%[46.1 µM]	3.6%	5.1%	-10.4%	x	x
COc1ccc(C(=O)NC(C)CCn2cccn2)cc1OC1CCN(C(C)C)CC1 (stereo unspecified)	15.0%	-5.1%	-15.3%	5.6%	2.5%	-5.2%	x	x
CC(=O)c1cccc(NC(=O)N2CCCC2C(=O)Nc2ccc3c(c2)OCO3)c1 (stereo unspecified)	3.5%	0.0%	-9.8%	17.0%	1.7%	u	x	x
COCCCNc1nc2c(c(=O)n(Cc3cccc(Br)c3)c(=O)n2C)n1C	-11.7%[46.1 µM]	2.1%	u	4.5%	-4.8%	-24.8%	x	x
COc1ccc(NC(=O)CCC(=O)OC(C(=O)c2ccccc2)c2ccccc2)cc1 (stereo unspecified)	3.7%	1.5%	2.8%	-2.5%	6.6%	3.2%	-8.4%	-11.5%
